ClpP mod: qHTS Assay for Activators of ClpP; 340,000 tested, 1.9% active; purified B. subtilis ClpP, FRET peptide cleavage, 20 min; Potency, µM (highest dose often 57.5 µM), without a hit: top-dose activity change, negative = active; AID 651965, 2013; active = well fitted falling curve with a large enough effect; inconclusive = small, poorly fitted or top-dose-only effect; inactive = no such curve, though single readings can be large or run the other way; also: potency is read from the fitted curve at half-maximal effect; the source files actives as falling curves though it sought activators and does not explain the sign; nearly all actives have a fitted effect of over 65% in size; many hits overshoot -100%
Target sequence (P80244 whole entry, looked up): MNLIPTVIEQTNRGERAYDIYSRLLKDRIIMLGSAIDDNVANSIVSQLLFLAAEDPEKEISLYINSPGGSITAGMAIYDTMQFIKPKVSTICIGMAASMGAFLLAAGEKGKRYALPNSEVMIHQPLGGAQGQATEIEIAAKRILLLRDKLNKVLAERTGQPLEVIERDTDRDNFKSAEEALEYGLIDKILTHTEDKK
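ClpP 10 microg/mL final, pH 8 Tris/KCl buffer with BSA, glycerol, Tween-20; compound pinned in; FRET-FV substrate; RT 20 min; Ex320/Em430; ΔFRET vs ADEP 5.8 microM, DMSO, no enzyme.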
Sfp inh: Sfp phosphopantetheinyl transferase inhibition | 310,000 tested, 3.5% active | Biochemical Sfp PPTase activity, qHTS | AID 1490 | Potency, µM, for inactives: max response, negative = inhibition, most hits filed as inhibitors | Q9F4F7; active = well fitted inhibition curve with a large enough effect; inconclusive = small, poorly fitted or top-dose-only effect, or another doubt; inactive = no such curve, though single readings can be large or run the other way;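 also: the enzyme is Sfp with the accession as filed and its product quenches rhodamine fluorescence; potency is read from the fitted curve at half-maximal effect; 0% = enzyme reaction without inhibitor and -100% = no enzyme wells; top concentration of the series not given in the record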
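Fluorescence-quenching assay with 15 nM Sfp, 5 uM rhodamine-CoA and 12.5 uM BHQ-2-labelled ybbR peptide in pH 7.6 Hepes/MgCl2 buffer. Enzyme was pre-incubated with compound for 15 min at room temperature. Rate was taken from the 30-min fluorescence change (525/598 nm).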
TRPML1 ag: activates the human TRPML1 channel; TRPML1-expressing cells, Ca2+ dye fluorescence, FDSS; host cell line not named in the record; reference of the full effect not given here; activation, % (concentration not given with the values); 410,000 tested, 0.12% active; AID 624414; in the data active = activation above about 50%; inconclusive = about 30% to 50%; inactive = below about 30%; also: 0% is about no effect; the text of the record puts the active cut at 80%
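Calcium fluorescence on an FDSS kinetic reader gave the read-out. Tet-induced TRPML1-DL cells were plated overnight, dye-loaded (Ca8 with quencher, 45-90 min, room temperature, dark), then read 110 s after compound addition, and again 110 s after 4uM final 54-4 (EC80).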
TRPV1 potentiator: enhances activation of the human vanilloid receptor TRPV1; AID 540277; potentiation, % at 8.33 µM; 320,000 tested, 0.02% active; TRPV1-expressing cells, Fluo-8 calcium influx, capsaicin EC20 potentiation; host cell line not named in the record; control for the full effect not named in the record; Q8NER1; active means potentiation above 80%; inconclusive means 30% to 80%; inactive means below 30%; also: 0% is about no effect
Target sequence (Q8NER1 whole entry, looked up): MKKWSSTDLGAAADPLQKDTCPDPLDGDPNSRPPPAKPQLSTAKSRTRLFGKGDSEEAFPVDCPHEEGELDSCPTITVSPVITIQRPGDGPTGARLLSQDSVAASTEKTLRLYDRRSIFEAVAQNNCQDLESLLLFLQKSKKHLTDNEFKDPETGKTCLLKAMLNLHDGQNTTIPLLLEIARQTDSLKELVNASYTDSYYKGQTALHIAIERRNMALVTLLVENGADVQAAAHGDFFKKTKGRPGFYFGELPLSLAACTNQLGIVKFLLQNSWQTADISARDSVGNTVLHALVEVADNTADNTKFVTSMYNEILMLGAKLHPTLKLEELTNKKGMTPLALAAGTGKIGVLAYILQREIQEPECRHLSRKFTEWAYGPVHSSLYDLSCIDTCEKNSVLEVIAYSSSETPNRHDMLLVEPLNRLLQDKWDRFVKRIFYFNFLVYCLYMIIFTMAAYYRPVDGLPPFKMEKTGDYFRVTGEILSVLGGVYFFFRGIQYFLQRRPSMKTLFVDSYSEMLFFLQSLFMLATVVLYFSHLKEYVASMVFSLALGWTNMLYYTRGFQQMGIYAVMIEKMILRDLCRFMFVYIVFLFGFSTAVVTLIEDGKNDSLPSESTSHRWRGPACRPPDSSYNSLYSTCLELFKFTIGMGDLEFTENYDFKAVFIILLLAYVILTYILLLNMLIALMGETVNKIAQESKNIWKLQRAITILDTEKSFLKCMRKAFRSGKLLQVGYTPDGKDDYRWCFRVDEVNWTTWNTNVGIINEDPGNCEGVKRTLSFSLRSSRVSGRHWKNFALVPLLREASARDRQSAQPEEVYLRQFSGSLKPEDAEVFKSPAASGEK
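TRPV1-expressing cells were cultured overnight at 35.5C and loaded with Fluo-8 calcium dye for 40 to 90 min at room temperature. After a 10 s baseline, compound was added and calcium influx was read kinetically for 3 min (ex 480/em 520 nm).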
PINK1 expr mod: changes PINK1 expression; PINK1 immunofluorescence, high-content cytometry, 24 h; Potency, µM (top dose mostly 76.6 µM), without a hit: top-dose activation (PINK1 increase), actives largely listed as activators; 410,000 tested, 0.2% active; AID 624263; active = well fitted activation curve with a large enough effect; inconclusive = small, poorly fitted or top-dose-only effect; inactive = flat fitted curve, though single readings scatter; cell line not stated here;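 also: potency is read from the fitted curve at half-maximal effect; % of control where 0% means no effect; nearly all actives have a fitted effect of over 65% in size; a mitochondrial uncoupler was the plate control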
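Stable cell line, 250 cells/well, 12 h attachment; compounds pinned at 5 concentrations, 24 h; CCCP control. Fixed with nuclear dye, primary antibodies 12 h at 10 degrees C, secondary plus cell stain; laser-scanning cytometer read.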
TRPML1 blocker: blocks the human TRPML1 channel; TRPML1-inducible cells, Ca2+ dye fluorescence, FDSS; active compounds read low; inhibition of EC80 agonist-evoked calcium signal; Q9GZU1; activity change, negative = inhibition, % (test concentration not listed); 390,000 tested, 0.02% active; in the data active means activity change below about -50%; inconclusive means about -30% to -50%; inactive means above about -30%;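 also: stimulus is agonist 54-4 at its EC80 concentration; % is scaled to controls: 0 for no effect and ±100 for the full control effect; compound concentration not given in the record; the text of the record puts the active cut at -80%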
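TRPML1-DL cells, Tet-induced overnight (~16 h, 37 °C) at 1,500 cells/well, were loaded with Ca8 no-wash dye plus quencher for 45-90 min at room temperature. Compounds were pinned during FDSS kinetic reading; agonist 54-4 at EC80 (4 uM final) then added.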
Menin-MLL FL inh: inhibitors of human menin-MLL interaction, wild-type MLL peptide. FP activity change, % at 61.4 µM. Fluorescence polarization, fluorescein-MLL peptide displacement from menin. 290,000 tested, under 10 active; inconclusive = falling polarisation curve, or a change in total fluorescence; inactive = total fluorescence flat and polarisation flat or rising; no compound was filed as active; the % refers to the polarisation; negative = inhibition;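 also: % of control where 0% means no effect; inhibitors lower the polarisation; unlabelled MLL peptide was the positive control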
Starred values were filed as active, the others as inactive; ? = inconclusive; nt = not tested or not shown; [ ] = dose if it differs, or a comment.

no.	Molecule	ClpP mod	Sfp inh	TRPML1 ag	TRPV1 potentiator
1	COc1ccccc1-n1c(SCC(=O)N2CCCC2)nnc1-c1ccccc1	nt	10%	2.2	7
2	CC(C)[C@H](NC(=O)NC1CCCC1)C(=O)O	-0.9%	10%	0.7	-4
3	CC(OC(=O)CN1C(=O)NC2(CCCC2)C1=O)C(=O)c1ccccc1 (stereo not given)	1.8%	nt	1.1	-1
4	CCOC(=O)N1CCN(C(=O)COc2cccc3c2CCN(CC)C3=O)CC1	-3.6%	8%	-0.4	4
5	CCOc1cc(C(=O)N2CCN(c3ccc(C(C)=O)cc3)CC2)cc(OCC)c1OCC	-7.3%	12%	2.3	1
6	COc1ccc(C(C)=O)cc1Cn1c(=O)cc(C)[nH]c1=O	nt	15%	-0.3	3
7	COc1cccc(/C=N/n2cncn2)c1OCC#N	?	7%	0.1	-3
8	C[C@@H]1CN([C@@H](C)CO)C(=O)c2cc(Br)cnc2O[C@H]1CN(C)C(=O)CCN1CCCCC1	1.3%	nt	-0.6	nt
9	COc1ccc(-n2ncc(C(=O)Nc3cccc(C(F)(F)F)c3)c2C2CCN(C(=O)OC(C)(C)C)CC2)cc1	0.4%	nt	1.8	nt
10	COc1ccc(Nc2ncc(C(=O)Nc3cc(C)ccc3OC)c3ccccc23)cc1	-15%	nt	1.2	nt

no.	PINK1 expr mod	TRPML1 blocker	Menin-MLL FL inh
1	0.1%	2	0.4
2	-1.9%	6	0.6
3	1.2%	10	nt
4	-0.1%	-5	-0.8
5	2.4%[38.3 µM]	10	-1.3
6	-0.1%	1	-3.3
7	-0.5%	-22	-2.9
8	2.2%	3	nt
9	3.9%	10	nt
10	3.7%	-16	nt

Carrying on.
no.	Molecule	ClpP mod	Sfp inh	TRPML1 ag	TRPV1 potentiator
11	COCCOc1ccc(C(F)(F)F)cc1Nc1nc2ccccc2o1	?	-10%	0.8	-16
12	CC(Oc1ccccc1)C(=O)N/N=C/c1ccccn1 (stereo not given)	-0.4%	-67%	1.7	4
13	O=C(NCc1nc(-c2ccc(Cl)cc2)no1)c1ccc2c(c1)OCO2	-0.3%	-5%	1.0	12
14	COc1cccc(CN(C)C(=O)c2ccc(NC(=O)CC3SC(N4CCCC4)=NC3=O)cc2)c1OC (stereo not given)	3.3%	nt	-0.4	4
15	O=C(COc1ccccc1[N+](=O)[O-])N(Cc1cccc(Br)c1)C1CCS(=O)(=O)C1 (stereo not given)	-3.3%	5%	0.4	10
16	COc1cccc(NC(=O)c2cccnn2)c1	-0.8%	9%	nt	4
17	O=C(CS(=O)(=O)c1ccc(F)cc1)N1CCN(c2ccccc2)CC1	0.5%	nt	1.1	-11
18	CCCCn1c(N)c(N(Cc2ccccc2OC)C(=O)COc2ccccc2C#N)c(=O)[nH]c1=O	-2.1%	4%	-0.4	25
19	COc1ccccc1CC(=O)N(Cc1ccccc1)c1ccc(C)cc1	-1.8%	0%	1.8	-10
20	CC(C)Oc1ccc(C(=O)Nc2ccccc2N2CCCC2)cc1	0.0%	3%	-0.8	-11

no.	PINK1 expr mod	TRPML1 blocker	Menin-MLL FL inh
11	1.4%	-2	3.5
12	0.3%	-14	-0.2
13	5.0%	44	3.4
14	1.8%	44	nt
15	0.6%	-9	nt
16	-0.5%	nt	-3.7
17	3.1%	-5	nt
18	-0.4%	-6	1.0
19	0.2%	22	nt
20	6.2%	-5	4.5

Next part:
no.	Molecule	ClpP mod	Sfp inh	TRPML1 ag	TRPV1 potentiator
21	COCCCNC(=O)CSc1nc2cc3c(cc2c(=O)n1CCCC(=O)NCc1ccc2c(c1)OCO2)OCO3	1.2%	nt	1.4	nt
22	CCC(CC)C(=O)Nc1ccc([N+](=O)[O-])cn1	nt	7%	-0.1	0
23	CC(C)(CNC(=O)c1ccc(Br)o1)N1CCOCC1	0.0%	-4%	0.1	-1
24	Nc1nc(CSc2ncn(-c3ccccc3)n2)cs1	0.2%	-21%	0.7	?
25	CC1CCN(C(=O)c2ccc(NC(=O)c3ccccc3)cc2)CC1	-1.2%	10%	0.7	-16
26	Cc1cc(-c2n[nH]c(=S)n2/N=C/c2ccc(C)s2)n[nH]1	0.8%	-17%	-0.2	-7
27	CC(=O)c1c(O)cc(O)c(C(C)=O)c1O	-0.3%	14%	nt	-10
28	CC(=O)Oc1ccc(-c2cccc(C(=O)N(C)c3ccc(O)cc3)c2)cc1	nt	5%	0.3	13
29	CCOC(=O)c1oc2ccc(S(=O)(=O)n3nc(-c4ccccc4OC)cc3N)cc2c1C	-0.5%	nt	-0.6	nt
30	O=C(CCCSc1nnnn1-c1cccc2ccccc12)c1ccc(F)cc1	0.0%	-1%	2.0	11

no.	PINK1 expr mod	TRPML1 blocker	Menin-MLL FL inh
21	-0.1%	10	nt
22	3.8%	2	-1.1
23	-0.7%	-4	nt
24	9.3%[38.3 µM]	6	-0.2
25	0.9%	18	nt
26	3.1%	19	2.6
27	12%	nt	4.4
28	3.1%	-7	5.7
29	-0.5%	-1	nt
30	-1.1%	2	1.1

10 compounds from above, arranged by heavy-atom count, lowest first.
no.	Molecule	ClpP mod	Sfp inh	TRPML1 ag	TRPV1 potentiator
27	CC(=O)c1c(O)cc(O)c(C(C)=O)c1O	-0.3%	14%	nt	-10
24	Nc1nc(CSc2ncn(-c3ccccc3)n2)cs1	0.2%	-21%	0.7	?
26	Cc1cc(-c2n[nH]c(=S)n2/N=C/c2ccc(C)s2)n[nH]1	0.8%	-17%	-0.2	-7
25	CC1CCN(C(=O)c2ccc(NC(=O)c3ccccc3)cc2)CC1	-1.2%	10%	0.7	-16
19	COc1ccccc1CC(=O)N(Cc1ccccc1)c1ccc(C)cc1	-1.8%	0%	1.8	-10
28	CC(=O)Oc1ccc(-c2cccc(C(=O)N(C)c3ccc(O)cc3)c2)cc1	nt	5%	0.3	13
30	O=C(CCCSc1nnnn1-c1cccc2ccccc12)c1ccc(F)cc1	0.0%	-1%	2.0	11
29	CCOC(=O)c1oc2ccc(S(=O)(=O)n3nc(-c4ccccc4OC)cc3N)cc2c1C	-0.5%	nt	-0.6	nt
18	CCCCn1c(N)c(N(Cc2ccccc2OC)C(=O)COc2ccccc2C#N)c(=O)[nH]c1=O	-2.1%	4%	-0.4	25
21	COCCCNC(=O)CSc1nc2cc3c(cc2c(=O)n1CCCC(=O)NCc1ccc2c(c1)OCO2)OCO3	1.2%	nt	1.4	nt

no.	PINK1 expr mod	TRPML1 blocker	Menin-MLL FL inh
27	12%	nt	4.4
24	9.3%[38.3 µM]	6	-0.2
26	3.1%	19	2.6
25	0.9%	18	nt
19	0.2%	22	nt
28	3.1%	-7	5.7
30	-1.1%	2	1.1
29	-0.5%	-1	nt
18	-0.4%	-6	1.0
21	-0.1%	10	nt

(listing goes on)
no.	Molecule	ClpP mod	Sfp inh	TRPML1 ag	TRPV1 potentiator
31	Cc1c(Cc2ccccc2)sc(/N=C/c2c(O)ccc3ccccc23)c1C(N)=O	-15%	35µM*	1.2	5
32	CC(NC(=O)c1ccccc1)C(=O)NC1=NCCS1 (stereo not given)	-1.0%	18%	-0.3	3
33	O=C(OCCNC(=O)c1ccc2ccccc2n1)c1ccc(F)cc1	-1.4%	5%	6.2	-16
34	NC(=O)C1CCN(CC(=O)Nc2ccccc2C(=O)NC2CC2)CC1	-0.5%	nt	0.0	-3
35	Cc1ccc(NC(=O)c2c(F)cccc2Cl)cc1S(=O)(=O)N1CCOCC1	1.6%	nt	0.0	-15
36	Cc1ccc(NC(=O)c2ccc(Cl)c(S(=O)(=O)N3CCCCC3)c2)nc1	-2.0%	nt	1.7	-12
37	O=C(Cc1ccc(N2CCNC2=O)cc1)N1CCCC(Nc2ccc(F)c(F)c2)C1 (stereo not given)	0.2%	9%	-0.1	12
38	CCC(C)C(NC(=O)C1CCC(C)CC1)C(=O)NCc1ccccn1 (stereo not given)	-0.6%	-2%	-0.2	3
39	Cc1cc(C)c2c(CC(=O)N(CCC#N)Cc3cccnc3)coc2c1	-4.7%	21%	-0.1	-1
40	O=C(CN1CCC(C(=O)c2ccc(F)cc2)CC1)Nc1ccc(F)cc1	-1.8%	13%	-0.9	4

no.	PINK1 expr mod	TRPML1 blocker	Menin-MLL FL inh
31	?	-16	?
32	-4.8%[38.3 µM]	8	2.5
33	-1.8%[38.3 µM]	-15	1.0
34	-0.4%	-4	nt
35	3.7%	4	nt
36	2.6%	38	nt
37	4.2%	-3	nt
38	-1.5%	3	-2.0
39	4.3%	6	0.1
40	1.8%	-5	-3.4

(further entries)
no.	Molecule	ClpP mod	Sfp inh	TRPML1 ag	TRPV1 potentiator
41	CCCn1c(O)c(N=NC(=O)CNC(=O)c2ccncc2)c2ccccc21	-1.5%	11%	-1.0	-10
42	COc1cc(C(=O)N2CCN(c3ncnc4sc(C)c(C)c34)CC2)cc(OC)c1OC	-1.1%	1%	0.9	6
43	O=S(=O)(c1ccc(Cl)cc1)N1CCN(c2nc(-c3ccc(Cl)cc3)nc3ccccc23)CC1	nt	nt	-0.1	nt
44	CNC(=S)N1CCC(C(=O)c2ccc(Cl)cc2)CC1	1.8%	nt	-0.9	nt
45	COC(=O)c1ccc(NC(=O)C[n+]2ccccc2)cc1	nt	15%	-0.3	-2
46	Cc1ccc(CN2CCN(CC(=O)Nc3ccc(C)c(C)c3)S2(=O)=O)cc1	-1.6%	nt	-0.2	nt
47	CC(=O)N(CC1CCCO1)c1nnc(-c2ccccn2)s1 (stereo not given)	16µM*	-3%	-0.3	1
48	COc1ccc(NC(=O)Cn2c(=O)n(-c3ccc(OC)c(OC)c3)c(=O)c3ccccc32)cc1	-3.9%	nt	0.2	nt

no.	PINK1 expr mod	TRPML1 blocker	Menin-MLL FL inh
41	-0.7%	4	nt
42	3.1%[38.3 µM]	-5	2.1
43	-1.2%	-5	nt
44	1.1%	-13	nt
45	0.0%	-3	6.6
46	-0.3%	-10	nt
47	1.4%	-2	0.7
48	1.2%	41	nt

Bioassay records from PubChem BioAssay.
